Screening results as filed in PubChem.
GIV Gai3 FP – inhibitors of GIV peptide binding to Galpha-i3, primary screen, biochemical, fluorescence polarization, FITC-GIV GBA peptide, rat Galphai3; Guanine nucleotide-binding protein G(i) subunit alpha-3 (Rattus norvegicus), P08753; 90 min; active compounds read low; scaled: aluminum fluoride 0%, vehicle 100%; percent of control (FP), % (test concentration not listed); 210,000 compounds, 0.42% hits;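 active means replicate mean at 85% of control or lower, very high polarization wells dropped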;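 further: lower values mean more displacement of the GIV peptide from Galpha-i3; wells of about 15 µL received 100 nL stock; the first replicate is given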
Target sequence (P08753 whole entry, looked up): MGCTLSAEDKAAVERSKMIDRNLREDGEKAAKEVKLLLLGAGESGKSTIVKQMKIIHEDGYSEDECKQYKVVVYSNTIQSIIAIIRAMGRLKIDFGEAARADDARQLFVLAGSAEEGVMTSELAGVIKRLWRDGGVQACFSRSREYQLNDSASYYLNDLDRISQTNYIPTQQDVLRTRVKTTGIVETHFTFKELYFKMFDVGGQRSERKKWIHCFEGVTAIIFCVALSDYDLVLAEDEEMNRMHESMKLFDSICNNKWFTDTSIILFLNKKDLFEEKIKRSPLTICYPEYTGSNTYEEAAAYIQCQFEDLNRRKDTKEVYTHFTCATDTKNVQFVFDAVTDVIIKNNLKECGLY
HCMV NEC inh – inhibitors of HCMV UL50-UL53 interaction, biochemical, HTRF | HCMV UL50-UL53 nuclear egress complex (human cytomegalovirus) | normalized percent inhibition | inhibition, % (no concentration beside the values) | 190,000 compounds, 0.15% hits | AID 1918969, 2023;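 active means both replicates at 50% or more, plus weaker picks with an unusually low signal ratio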;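 further: stock transfer was 100 nL into about 20 µL; 0% = negative control wells and 100% = wells with untagged competitor protein; inactives centre near -12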
Sa growth 42C – S. aureus growth inhibition at 42 and 30 °C, primary screen, LtaS inhibitor project, RN4220, two temperatures; OD600, 20 h, 42 °C; active compounds read low; relative growth, % (no concentration beside the values); 170,000 compounds, 0.53% hits; AID 720641, 2013;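 active means growth at 42 °C up to 50% and 20 or more points under that at 30 °C, or under 10% at both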;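 further: 300 nL library stock went into each well; scaled to the means of positive and negative controls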
Sa growth 42C second temp – also measured in Sa growth 42C; calls as there; relative growth, %; measured here: growth at 30 °C;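 optical density after 20 h as mean of two plates; 100% = untreated growth and lower means inhibition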
Numbers without * were called inactive; nt = no result given; & = joins results of further samples.

The first three records (preview)
smiles	GIV Gai3 FP	HCMV NEC inh	Sa growth 42C	Sa growth 42C second temp
CCOc1ccc(C(=O)c2cn(CC(=O)Nc3ccc4c(c3)OCO4)c3ccc(OCC)cc3c2=O)cc1	104	-17	106	91
CCOC(=O)c1sc(=S)n(C)c1C	97	-37	90	82
Cc1c2cnn(CC(=O)NC3CCC(C)CC3)c(=O)c2c(C)n1Cc1ccc(F)cc1 (stereo not given)	103	1	95	89

All compounds of this part (from the top)
smiles	GIV Gai3 FP	HCMV NEC inh	Sa growth 42C	Sa growth 42C second temp
CCOc1ccc(C(=O)c2cn(CC(=O)Nc3ccc4c(c3)OCO4)c3ccc(OCC)cc3c2=O)cc1	104	-17	106	91
CCOC(=O)c1sc(=S)n(C)c1C	97	-37	90	82
Cc1c2cnn(CC(=O)NC3CCC(C)CC3)c(=O)c2c(C)n1Cc1ccc(F)cc1 (stereo not given)	103	1	95	89
N#CCn1c(=O)oc2ccccc21	nt	-10	88	87
O=C(N/N=C/c1sc(Nc2ccccc2)nc1Cl)C1CC1	nt	-12	116	100
CC1CCN(C(=O)CCSc2nc(-c3ccc4c(c3)OCO4)cc(C(F)(F)F)n2)CC1	108	-1	nt	nt
Cn1cc(SCC(=O)NC2CCCC2)c2ccccc21	102	-1	100	79
O=C(Nc1ccc(-c2cn3c(n2)SCC3)cc1)c1ccc(Br)o1	127	-27	94	53
COc1ccc(C(=O)OCC(=O)c2ccc(C)cc2)cc1OC	104	2	80	115
CCn1ccc2cc(S(=O)(=O)N3CCCC(C(=O)N4CCCC(C)C4)C3)ccc21 (stereo not given)	99	-5	nt	nt
CCCn1c(SCC(=O)N2CCc3ccccc3C2)nc(O)cc1=O	nt	-35	75	80
CC(=O)Nc1cc2cc(NC(=O)c3ccccc3C(F)(F)F)ccc2oc1=O	101	-11	105	75
COc1cccc(CNC(=O)c2nn(-c3ccc(C)cc3)c(=O)c3c2c2ccccc2n3C)c1	105	25	99	86
Cc1cc(C)n(C(C)C(=O)Nc2ccccc2C)c(=O)n1 (stereo not given)	108	5	108	102
Cc1cccc(OCCOC(=O)c2ccc(O)cc2)c1	nt	-5	95	65
O=C1CCCc2cc(S(=O)(=O)NCC3CCN(Cc4cccc(F)c4)CC3)ccc2N1	103	-27	106	85
Cn1ncc2c(Nc3ccccc3)nc(N3CCC(N4CCCCC4)CC3)nc21	107	12	nt	nt
O=S(=O)(NCC(Sc1nnnn1-c1ccccc1)c1ccccc1)c1ccc(Cl)s1 (stereo not given)	nt	10	103	105
O=S1(=O)C[C@H](NCc2ccc3c(c2)OCO3)[C@@H](S(=O)(=O)c2ccccc2)C1	94	-14	nt	nt
O=C(NCc1ccncc1)c1cccc(Nc2nc3ccccc3n3nnnc23)c1	105	-30	109	69

Grouped by structure, the entries above containing a CF3 group
smiles	GIV Gai3 FP	HCMV NEC inh	Sa growth 42C	Sa growth 42C second temp
CC1CCN(C(=O)CCSc2nc(-c3ccc4c(c3)OCO4)cc(C(F)(F)F)n2)CC1	108	-1	nt	nt
CC(=O)Nc1cc2cc(NC(=O)c3ccccc3C(F)(F)F)ccc2oc1=O	101	-11	105	75

Remaining list, next part:
smiles	GIV Gai3 FP	HCMV NEC inh	Sa growth 42C	Sa growth 42C second temp
O=C(O)c1sc2sccc2c1Cl	nt	-23	110	80
CCc1ccc(C(=O)NCc2nnc(SC)n2CC)cc1	104	-7	106	82
O=C(/C=C/c1ccco1)N1CCC(Cc2ccccc2)CC1	nt	-47	31	33
CN(Cc1ccccc1)C1CCN(Cc2cc(Br)ccc2O)CC1	97	-3	114	82
CCN1CCN(c2cc3c(cc2F)c(=O)c(S(=O)(=O)c2cc(C)cc(C)c2)cn3CC)CC1	101	nt	118	102
C=CCN1C(=O)/C(=C\c2ccccc2)C(C(=O)OC)=C1C	99	-32	82	77
Nc1cccc2c1C(=O)N(C(=O)C1CCCN1C(=O)c1cccs1)C2=O (stereo not given)	nt	-37	82	90
COc1cc(CNCCSc2nnnn2C)ccc1OCc1ccc(Cl)cc1Cl	110	0	87	40
Cc1ccc2c(C)nc(Nc3nccc(C)n3)nc2c1	105	-7	118	92
Cc1ccc(CNC(=O)c2ccc3c(=O)n(-c4ccccc4)c(=O)[nH]c3c2)cc1	103	-13	96	92
NC(=S)NNc1ccc(F)cc1	100	-26	70	59
COc1ccccc1-c1nnc(SCC(=O)O)n1-c1ccccc1	101	0	106	86
CCOCC(=O)Nc1cc(C)on1	96	-6	99	88
O=C(NCCc1ccccc1)c1ccc2c(c1)N(Cc1ccc(F)cc1)C(=O)c1ccccc1S2	104	nt	117	96
O=C(Cc1cccc(C(F)(F)F)c1)Nc1nccs1	nt	-19	71	69
Fc1ccccc1CNC1CC1	103	-13	110	83
CNNC(=S)Nc1ccc(Cl)cc1	104	-27	97	94
OC1CCCN(Cc2ccccc2)C1 (stereo not given)	105	nt	93	103
CC(=O)Nc1ccc(C)cc1N=Cc1ccncc1	102	nt	95	82
C=CCSc1nc2sc3c(c2c(=O)[nH]1)CC(C)(C)OC3	104	12	165	122
O=C(c1csc(S(=O)(=O)N2CCOCC2)c1)N1CCOCC1	106	-28	nt	nt
CSc1nc2ccccc2c(=O)n1N	101	-7	115	93
N/C(=N\O)c1ccc(Oc2c(Cl)cncc2Cl)cc1	98	1	95	109
COC(=O)c1sccc1S(=O)(=O)N(CC(=O)Nc1cccc(C)c1C)c1ccc(C)c(C)c1	98	nt	106	93
S=C(SCSc1nc2ccccc2s1)N1CCCCC1	105	nt	82	92
Cc1oc2c(C)c3oc(=O)c(CCC(=O)N4CCCCC4)c(C)c3cc2c1C	107	16	77	86
Cc1cc(C(=O)COc2ncnc3sccc23)c(C)n1-c1ccccc1	nt	-13	93	91
Cc1cc(C)cc(NC(=O)CN2C(=O)c3ccccc3Sc3ncccc32)c1	99	nt	105	80
CC1CCN(c2ncnc3c2c(-c2ccccc2)cn3-c2ccc(Br)cc2)CC1	102	nt	107	91
CC1=C(C)CC(C(=O)c2ccc(C)cc2)C(C(=O)O)C1 (stereo not given)	99	nt	154	82
O=C1CNC(=S)N1CC1CCCO1 (stereo not given)	102	-35	77	84
CC1=C(C(=O)Nc2ccccn2)C(c2ccc(N(C)C)cc2)n2ncnc2N1 (stereo not given)	106	-2	nt	nt
Cc1ccc(C(=O)Cn2nc3n(CCC(C)C)c(=O)c4ccc(C(=O)NC(C)C)cc4n3c2=O)c(C)c1	107	-31	nt	nt
COc1cnc(N)nc1	nt	-15	111	90
O=C(CCc1ccccc1)Nc1cccnc1	nt	-18	96	96
COc1ccc(NC(=O)N2CCN(c3cc(N(C)C)nc(C)n3)CC2)cc1	101	14	nt	nt
COc1ccc(/C=C2\SC(N3CCN(C(=O)CCN4C(=O)/C(=C\c5ccc(OC)cc5)SC4=S)CC3)=NC2=O)cc1	105	-17	nt	nt
O=C(CC(NCc1cccnc1)C(=O)O)Nc1ccc(F)cc1 (stereo not given)	99	-4	97	90
COc1cccc(-n2cc(C(=O)N(C)c3ccccc3)c3ccccc3c2=O)c1	109	nt	99	97
Nc1cc(=O)nc(SCC(=O)NCc2ccccc2)n1-c1ccccc1	100	nt	114	93
CCCN(CC(=O)Nc1ccc(S(N)(=O)=O)cc1)C(C)C(=O)Nc1cccc(Cl)c1 (stereo not given)	nt	-31	104	81
CC(C)CNc1nc(SCC(N)=O)nc(N(C)C)n1	106	-13	104	103
O=C(O)CCCN1C(=O)c2ccccc2C1=O	nt	-12	88	95
O=C(Cn1nnc2sc3c(c2c1=O)CCCC3)Nc1ccc(F)c(Cl)c1	105	-37	92	69
O=C(O)C1C2C=CC(O2)C1C(=O)NCc1ccccc1Br (stereo not given)	104	-2	102	90
Cc1[nH]c(=O)c(C#N)c(C)c1CCC(=O)N1CCN(S(=O)(=O)c2ccc(Cl)s2)CC1	nt	5	99	102
COc1ccc2[nH]c(C(=O)NCCN3CCCCC3)cc2c1	120	-22	96	83
COc1cc(NC(=O)c2cccc(Cl)c2Cl)ccc1NC(=O)c1cc2ccccc2o1	103	-35	107	94
COc1ccc(-n2ccn3c(=O)[nH]nc3c2=O)cc1	97	-28	nt	nt
CCOC(=O)C1=C(C)N=c2s/c(=C\c3ccc(N(C)C)o3)c(=O)n2C1c1c(OC)ccc2ccccc12 (stereo not given)	105	-23	nt	nt

Next compounds follow:
smiles	GIV Gai3 FP	HCMV NEC inh	Sa growth 42C	Sa growth 42C second temp
CCOc1cc(-c2nc3sc4c(c3c(=O)[nH]2)CCCC4)ccc1OCCOCCOc1ccccc1C	108	-9	nt	nt
CC(Oc1coc(CN2CCN(Cc3ccccc3)CC2)cc1=O)c1ccccc1 (stereo not given)	103	-19	94	85
COc1cc(Nc2ncnc3c2cnn3-c2ccc(Cl)cc2)cc(OC)c1OC	101	10	96	100
COc1ccc(CCNC2=CC(=O)OC23CCCCC3)cc1OC	nt	6	82	94
CN1C/C(=C\c2ccc(F)c(F)c2)C(=O)/C(=C/c2ccc(F)c(F)c2)C1	127	nt	87	60
Cc1ccc(NC(=O)Cn2nnc(C(=O)Nc3ccc(Br)cc3)c2N)cc1F	101	-9	102	97
O=C(NCc1ccc(Cl)cc1)c1cccn1-c1cccnc1	108	-1	nt	nt
O=C(CSc1nnc2sc3ccccc3n12)N1c2ccccc2CCc2ccccc21	95	-9	nt	nt
COCCOC(=O)C1=C(C)NC(SC)=C(C#N)C1c1ccccc1Cl (stereo not given)	103	-40	99	74
COC(=O)c1ccccc1NC(=O)c1cc2c(s1)-c1ccccc1OC2	106	-23	107	87
CC1=C2C(=NCCN1)C(=O)N(c1ccccc1)C2c1cccnc1 (stereo not given)	182&145	-65	84	76
O=C(NCCCN1CCN(c2cccc(Cl)c2)CC1)c1sc2ncccc2c1-n1cccc1	105	nt	93	74
COC(=O)c1c(NC(=O)CS(=O)(=O)c2ccc(C)cc2)sc2c1CCCCC2	96&104	nt	120	89
CCCSc1oc(-c2cccs2)nc1S(=O)(=O)c1ccc(Cl)cc1	104	-4	85	86
CCc1nc2ccc(C(=O)NCCc3ccco3)cc2nc1CC	97	-59	96	79
COc1cc(NC(=O)CSc2nnc(C)n3c2cc2oc(C)cc23)cc(OC)c1	106	nt	100	86
Cc1cc(Oc2ccccc2)nc(Oc2ccc(OCCOc3ccc(Br)cc3)nn2)n1	101	nt	118	80
CC(=O)Nc1cccc(C(=O)NC2CCN(Cc3c(F)cccc3Cl)CC2)c1	98	2	99	96
CCCNC(=O)c1[nH]nc2c1CCc1cc(OC)ccc1-2	98	-23	nt	nt
O=C(Nc1ccccc1F)C(Cc1ccccc1)N1Cc2ccccc2C1=O (stereo not given)	102	nt	108	92
C=CCc1ccccc1OCc1nc2ccc(C)cc2[nH]1	102&110	-13&8	105	73
C=C(C)Cn1c(=O)c2c(nc3n2CC(C)CN3Cc2ccccc2)n(C)c1=O (stereo not given)	103	-51	84	79
OCC(O)C(O)C(O)C(O)c1nc2ccccc2[nH]1 (stereo not given)	nt	37*	92	92
CCOc1ccc(NC(=O)CSc2nc(-c3cccc(Cl)c3)nc3c2Cc2c(CO)cnc(C)c2O3)cc1	99	nt	111	99
O=C(NC1(C(F)(F)F)OCCO1)c1ccc(F)cc1	100	-23	83	79
COc1ccc(-n2ncc(C(=O)Nc3ccc4c(c3)OCO4)c2C2CCN(C(=O)OC(C)(C)C)CC2)cc1	113	nt	91	85
COc1cc2[nH]c(=O)n(CCCC(=O)NCc3ccccc3Cl)c(=O)c2cc1OC	102	5	104	93
CN1CCN(S(=O)(=O)c2ccc(Cc3ccc(S(=O)(=O)N4CCN(C)CC4)cc3)cc2)CC1	104	-29	100	79
COc1cccc(NC(=O)c2sc(-n3[nH]c(C)c(Cc4ccccc4)c3=O)nc2C)c1	102	-32	nt	nt
Cc1ccc(C2=NNC(c3cccnc3)=Nc3ccc(F)cc32)o1	104	-56	102	105
COc1ccc(C(=O)Nc2ccc(Cl)cc2)cc1S(=O)(=O)N1CC(c2ccccc2)CC1=O (stereo not given)	99	-3	118	78
CN(CC(=O)N=c1sccn1C)S(=O)(=O)c1ccc(Cl)cc1	nt	-13	101	94
COc1ccccc1CCNC(=O)c1cccn1-c1nnc(N2CCCC2)s1	96	nt	77	76
CCOC(=O)/C(C#N)=C/c1ccsc1	106	-96	95	83
CCC(CC)C(=O)Nc1ccc(OCc2cc(=O)n3ccsc3n2)cc1	100	-36	95	88
Cc1ccc(C(=O)Oc2ccc(/C=N/c3cccs3)cc2)cc1	nt	-13	101	91
COC(=O)c1cc(OC)c(OC)cc1NS(=O)(=O)c1ccsc1C(=O)OC	113	-4	108	85
CCc1n[nH]c(=S)c2cc3sccc3n12	105	nt	100	82
O=C(CN1CCC(c2nc3ccccc3s2)CC1)N1CCCCC1	105	0	124	94
O=c1cc(-c2cccs2)nc(-c2cccc(I)c2)o1	96	nt	138	102
